# Compound activity as filed in PubChem BioAssay.
# BasE inh = blocks the Acinetobacter baumannii siderophore enzyme BasE; purified BasE, fluorescence polarization binding displacement; inhibition, % (test concentration not listed); actives 0.1% (n = 84,000);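 active = both replicates above 25% with normal brightness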;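 note: 0% = negative plate control signal and 100% = positive plate control signal; stock transfer was 100 nL into about 30 µL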
# LANA-nucl inh = inhibitors of KSHV LANA binding to nucleosomes. actives 0.3% (n = 51,000). z-score (test concentration not listed). FITC-LANA1-23 / chicken nucleosome fluorescence polarization; stronger effect = lower value;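 active = both repeat wells score below -2 in polarization z-score versus plate sample wells, excluding overly bright wells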;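 note: 100 nL library stock added to about 30 µL; numbers are from one replicate; some results filed as inactive read as strong as hits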
#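 System – purified chicken nucleosomes with FITC-labelled LANA N-terminal peptide (1-23) · Amount – 240 nM purified chicken nucleosomes (480 nM peptide binding sites), final · Also added – 50 nM FITC-LANA1-23 probe · Medium – TEN-BT buffer, pH 7.5 · Incubation – compound with peptide–nucleosome mix 10–45 min at room temperature · Detection – fluorescence polarization, ex 480 nm, em 535 nm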
# * hit, by the source's call; . = not tested or not shown; & = joins results of further samples. Not all compounds are listed, so the mix of outcomes need not match the whole.
1) S=P(Nn1cnnc1)(c1ccccc1)c1ccccc1
  BasE inh: 0.2	LANA-nucl inh: .

2) CCN1C(=O)NC(=O)/C(=C\c2cn(CC(=O)N3CCCCC3C)c3ccccc23)C1=O (stereo not given)
  BasE inh: 1.9	LANA-nucl inh: 1.1

3) Cc1ccc(OC(=O)N(C)C)c(CN(C)C)c1
  BasE inh: 0.1	LANA-nucl inh: 0.19

4) c1cc2c(cc1N1CCNCC1)OCCO2
  BasE inh: 0.9	LANA-nucl inh: -0.91

5) CCNc1cc2oc(=O)cc(C(F)(F)F)c2cc1C
  BasE inh: 17	LANA-nucl inh: -1.3

6) CCOc1ccc(NC2=NCCCS2)cc1
  BasE inh: -1.7	LANA-nucl inh: .

7) Oc1ccc2c3c1OC1C(O)CC[C@@]4(O)[C@@H](C2)N(CC2CCC2)CC[C@]314 (stereo not given in full)
  BasE inh: .	LANA-nucl inh: 1.2

8) C=CCN1C(=O)C2(C(C(=O)OCC)=C(N)Oc3ccccc32)c2c1c1ccccc1oc2=O (stereo not given)
  BasE inh: 3.3	LANA-nucl inh: -0.45

9) CCOc1ccc2oc(C(=O)NN3C(C)CCCC3C)c(C)c2c1 (stereo not given)
  BasE inh: -1.9	LANA-nucl inh: .

10) CC(C)C(=O)c1cn(Cc2ccccc2C#N)c2ccccc12
  BasE inh: -0.3	LANA-nucl inh: -1.1

11) OC1(c2cccnc2)CCNCC1
  BasE inh: -1.1	LANA-nucl inh: -1.2

12) CC(C)C/C(=N/O)c1c[nH]c2ccccc12
  BasE inh: 1.0	LANA-nucl inh: 0.3

13) Oc1ccc2c3c1O[C@H]1c4[nH]c5ccccc5c4C[C@@]4(O)[C@@H](C2)N(CC2CC2)CC[C@]314
  BasE inh: .	LANA-nucl inh: -0.17

14) O=C(Nc1ccncc1)c1cc2cccnc2n(Cc2ccccc2)c1=O
  BasE inh: 2.4	LANA-nucl inh: -0.28

15) NC1CN2CCC1CC2 (stereo not given)
  BasE inh: -2.0	LANA-nucl inh: .

16) CC(C)(C)NC(=O)/C=C/c1ccc(Cl)cc1
  BasE inh: 0.8	LANA-nucl inh: 0.045

17) CC1CC[C@]2(NC1)O[C@H]1C[C@H]3[C@@H]4CC[C@H]5C[C@@H](O)CC[C@]5(C)[C@H]4CC[C@]3(C)[C@H]1[C@@H]2C (stereo not given in full)
  BasE inh: 1.1	LANA-nucl inh: -0.59

18) O=C1CSC(c2ccccc2Cl)c2cc(Cl)ccc2N1 (stereo not given)
  BasE inh: 0.2	LANA-nucl inh: -0.61

19) CCCC(=O)N1CCC2(CC1)OCCO2
  BasE inh: 0.0	LANA-nucl inh: -0.22

20) CCN1CCN(C(=S)N[P+](c2ccccc2)(N(CC)CC)N(CC)CC)CC1
  BasE inh: 1.7	LANA-nucl inh: .

21) Cc1ccc(Oc2c(C)nc(C)nc2OC(=O)N(C)C)cc1
  BasE inh: 2.0	LANA-nucl inh: .

22) O=C1NC(=O)C2(CCOCC2)C(=O)N1
  BasE inh: 2.4	LANA-nucl inh: .

23) O=C(COC(=O)Cc1ccccc1)Nc1cccnc1Cl
  BasE inh: 5.7	LANA-nucl inh: .

24) O=C(O)Cc1ccccc1
  BasE inh: .	LANA-nucl inh: 0.085&0.053

25) CN(C(=O)Oc1ccc(C(C)(C)C)cc1)c1ccccc1
  BasE inh: 2.9	LANA-nucl inh: 0.43

26) CN(C)C(=O)Oc1cccc2cccnc12
  BasE inh: 0.3	LANA-nucl inh: -0.69

27) CCN=Cc1c(O)n(C)c(=O)n(C)c1=O
  BasE inh: 2.7	LANA-nucl inh: 0.064

28) O=C1C=CC(=O)c2c(O)cccc21
  BasE inh: 6.3&2.5	LANA-nucl inh: -0.92&0.15

29) Cc1cccc(CNCCc2ccccc2)n1
  BasE inh: -1.4	LANA-nucl inh: -0.31

30) NCCc1c[nH]c2ccc(Cl)cc12
  BasE inh: -85	LANA-nucl inh: -0.34

31) CN1C(=O)N(C(=O)c2ccccc2)C(=O)C(C)(C2=CCCCC2)C1=O (stereo not given)
  BasE inh: -0.5	LANA-nucl inh: 0.78

32) CNC(=O)O/N=C/c1[nH]ncc1Br
  BasE inh: 4.9	LANA-nucl inh: -1.2

33) O=C(c1cc2nc(-c3ccccc3)cc(-c3ccccc3)n2n1)N1CCC2(CC1)OCCO2
  BasE inh: -3.8	LANA-nucl inh: 2.3

34) O=C(c1cccs1)C1CN(Cc2ccccc2)CCC1(O)c1cccs1 (stereo not given)
  BasE inh: 0.2	LANA-nucl inh: .

35) CCN(CC(=O)c1ccccc1Cl)C1CCCCC1
  BasE inh: 0.4	LANA-nucl inh: .

36) COc1ccc(C2NN=C3C4CCN(CC4)C32)cc1Br (stereo not given)
  BasE inh: .	LANA-nucl inh: 2

37) COCCNC(=O)c1c(N)n(Cc2ccccc2)c2nc3ccccc3nc12
  BasE inh: 0.7	LANA-nucl inh: .

38) Cc1ccccc1-n1c(O)c(/C=N/c2nccs2)c(=O)[nH]c1=O
  BasE inh: 1.7	LANA-nucl inh: .

39) CN1CCc2nc(SCc3cccc(Cl)c3)c(C#N)cc2C1
  BasE inh: 1.0	LANA-nucl inh: .

40) CCC(N)C(=O)c1ccc(Cl)cc1 (stereo not given)
  BasE inh: -0.2	LANA-nucl inh: 0.14

41) Fc1ccc(NC2=NCCN2)cc1
  BasE inh: 1.9	LANA-nucl inh: .

42) CC(c1ccccc1)n1cncc1C(=O)N1CCCC1=O (stereo not given)
  BasE inh: 0.3	LANA-nucl inh: 0.41

43) CC(=O)Nc1c(O)[nH]c(=S)[nH]c1=O
  BasE inh: -0.4	LANA-nucl inh: -0.85

44) c1ccc2c(NC3=NCCS3)cccc2c1
  BasE inh: 0.3	LANA-nucl inh: 0.062

45) COc1ccc(OC)c(C(O)C(C)N)c1 (stereo not given)
  BasE inh: -1.0&-0.8	LANA-nucl inh: -0.79&0.27&0.65

46) COC(=O)C1(O)c2ccccc2-c2ccccc21
  BasE inh: 1.0	LANA-nucl inh: -1.1

47) CN(C)[C@@H]1C(=O)C(C(N)=O)=C(O)[C@@]2(O)C(=O)C3=C(O)c4c(O)cccc4[C@@](C)(O)[C@H]3[C@H](O)[C@@H]12
  BasE inh: 11&-0.6	LANA-nucl inh: 0.23&0.25&0.93

48) CNC1CCCC1
  BasE inh: -1.2	LANA-nucl inh: .

49) CN1N=C2C3CCN(CC3)C2C1c1ccc(Cl)c(Cl)c1 (stereo not given)
  BasE inh: .	LANA-nucl inh: -0.15

50) CCP(=O)(CC)Nc1cccc(C(F)(F)F)c1
  BasE inh: 1.3	LANA-nucl inh: 0.73

# 22 entries from above in a different format:
# Every second line gives: BasE inh	LANA-nucl inh
27. CCN=Cc1c(O)n(C)c(=O)n(C)c1=O
 : 2.7	0.064
28. O=C1C=CC(=O)c2c(O)cccc21
 : 6.3&2.5	-0.92&0.15
29. Cc1cccc(CNCCc2ccccc2)n1
 : -1.4	-0.31
30. NCCc1c[nH]c2ccc(Cl)cc12
 : -85	-0.34
31. CN1C(=O)N(C(=O)c2ccccc2)C(=O)C(C)(C2=CCCCC2)C1=O (stereo not given)
 : -0.5	0.78
32. CNC(=O)O/N=C/c1[nH]ncc1Br
 : 4.9	-1.2
33. O=C(c1cc2nc(-c3ccccc3)cc(-c3ccccc3)n2n1)N1CCC2(CC1)OCCO2
 : -3.8	2.3
34. O=C(c1cccs1)C1CN(Cc2ccccc2)CCC1(O)c1cccs1 (stereo not given)
 : 0.2	.
35. CCN(CC(=O)c1ccccc1Cl)C1CCCCC1
 : 0.4	.
36. COc1ccc(C2NN=C3C4CCN(CC4)C32)cc1Br (stereo not given)
 : .	2
37. COCCNC(=O)c1c(N)n(Cc2ccccc2)c2nc3ccccc3nc12
 : 0.7	.
38. Cc1ccccc1-n1c(O)c(/C=N/c2nccs2)c(=O)[nH]c1=O
 : 1.7	.
39. CN1CCc2nc(SCc3cccc(Cl)c3)c(C#N)cc2C1
 : 1.0	.
40. CCC(N)C(=O)c1ccc(Cl)cc1 (stereo not given)
 : -0.2	0.14
41. Fc1ccc(NC2=NCCN2)cc1
 : 1.9	.
42. CC(c1ccccc1)n1cncc1C(=O)N1CCCC1=O (stereo not given)
 : 0.3	0.41
43. CC(=O)Nc1c(O)[nH]c(=S)[nH]c1=O
 : -0.4	-0.85
44. c1ccc2c(NC3=NCCS3)cccc2c1
 : 0.3	0.062
45. COc1ccc(OC)c(C(O)C(C)N)c1 (stereo not given)
 : -1.0&-0.8	-0.79&0.27&0.65
46. COC(=O)C1(O)c2ccccc2-c2ccccc21
 : 1.0	-1.1
47. CN(C)[C@@H]1C(=O)C(C(N)=O)=C(O)[C@@]2(O)C(=O)C3=C(O)c4c(O)cccc4[C@@](C)(O)[C@H]3[C@H](O)[C@@H]12
 : 11&-0.6	0.23&0.25&0.93
48. CNC1CCCC1
 : -1.2	.

# Next part
51) CN1CCc2nc3sc(C(N)=O)c(N)c3cc2C1
  BasE inh: 1.1	LANA-nucl inh: -0.23

52) Cc1csc2sc(C=C(C#N)C#N)c(C)c12
  BasE inh: 3.1	LANA-nucl inh: -0.59

53) CN(CC1CC=CCC1)CC(O)c1ccccc1 (stereo not given)
  BasE inh: -1.5	LANA-nucl inh: -0.51

54) Cc1c(C(=O)N2CCC3(CC2)OCCO3)oc2ccc(S(=O)(=O)N3CCCCC3)cc12
  BasE inh: 0.9	LANA-nucl inh: -1

55) CCCc1c(C)nc(SCC(=O)C(C)(C)C)nc1OC(=O)N(C)C
  BasE inh: 0.6	LANA-nucl inh: .

56) CN1CCC2=C[C@@H](O)C3OC(=O)c4cc5c(cc4C3[C@H]21)OCO5 (stereo not given in full)
  BasE inh: -1.1	LANA-nucl inh: 0.53

57) O=C(O)CCn1cc(C=C2C(=O)NC(=O)NC2=O)c(-c2cc3ccccc3oc2=O)n1
  BasE inh: 2.9	LANA-nucl inh: .

58) CN=Cc1c(O)[nH]c(=O)[nH]c1=O
  BasE inh: 0.1	LANA-nucl inh: -0.042

59) O=c1cc(CN2CC=C(c3ccccc3)CC2)nc2scc(-c3ccccc3)n12
  BasE inh: 0.8	LANA-nucl inh: .

60) N#CC(C#N)=NNc1ccc(-n2ccc(C(F)(F)F)n2)cc1
  BasE inh: 6.9	LANA-nucl inh: 0.14

61) CCOc1cc(C(F)(F)F)cnc1/C(N)=N/OC(=O)NC
  BasE inh: 1.2	LANA-nucl inh: -0.88

62) O=C1NC(=O)C(=Cc2ccc(-c3cc(C(=O)O)ccc3Cl)o2)C(=O)N1
  BasE inh: 2.1	LANA-nucl inh: -1.1

63) CCCC(C)(COC(N)=O)COC(=O)NC(C)C (stereo not given)
  BasE inh: -0.4&0.6	LANA-nucl inh: 1.1&0.16&-0.44

64) O=C1C2CC(CN3CCCC[C@@H]23)[C@H]2CCCCN12 (stereo not given in full)
  BasE inh: -0.9	LANA-nucl inh: 0.82

65) CCCCc1ccc(N/C=c2/c(C)c(C#N)c3nc4ccccc4n3c2=O)cc1
  BasE inh: 0.8	LANA-nucl inh: .

66) CCN1CCN(Cc2ccccc2C#N)CC1
  BasE inh: 0.8	LANA-nucl inh: -1.4

67) COc1ccc(CN2CCN(C(=O)COc3ccccc3)CC2)cc1OC
  BasE inh: 1.4	LANA-nucl inh: -1.2

68) COc1ccccc1CCN(Cc1ccco1)Cc1ccco1
  BasE inh: -2.4	LANA-nucl inh: 0.048

69) O=C(NC(=S)Nc1cc(C(F)(F)F)cc(C(F)(F)F)c1)Oc1ccccc1
  BasE inh: -0.6	LANA-nucl inh: .

70) CSc1nnc(C(C)(C)C)c(=O)n1N
  BasE inh: -1.5	LANA-nucl inh: -0.21

71) COc1ccc2c(c1OC)C(=O)OC2C1c2cc3c(cc2CCN1C)OCO3 (stereo not given)
  BasE inh: -1.5	LANA-nucl inh: -0.68

72) CN(C)P(=NC(=S)Nc1ccccc1)(N(C)C)N(C)C
  BasE inh: 3.4	LANA-nucl inh: .

73) O=C1NC(=O)C(Cc2ccccc2)C(=O)N1
  BasE inh: -1.6	LANA-nucl inh: -0.023

74) N#CC(C#N)=Cc1cccc(OC(F)F)c1
  BasE inh: 2.4	LANA-nucl inh: .

75) C#CCN1CCCC2(CCOC(C)(CC)C2)C1 (stereo not given)
  BasE inh: 4.3	LANA-nucl inh: -0.074

76) CC(C)c1c(CN(C)C(C)Cc2ccccc2)n(C)n(-c2ccccc2)c1=O (stereo not given)
  BasE inh: -2.2	LANA-nucl inh: -0.4

77) Cc1ccc2c(c1)C1CN(C)CCC1N2 (stereo not given)
  BasE inh: 8.1	LANA-nucl inh: -0.36
